HPGD block: qHTS Assay for Inhibitors of HPGD (15-Hydroxyprostaglandin Dehydrogenase). purified HPGD, NADH fluorescence kinetic, PGE2 substrate. 15-hydroxyprostaglandin dehydrogenase [NAD(+)] (Homo sapiens), P15428. Potency, µM, for the others: at the top dose activity change, negative = inhibition, usual class: inhibitors. 4.3% of 150,000 active. AID 894, 2007; active = well fitted inhibition curve with a large enough effect (not every such curve was filed as active); inconclusive = small, poorly fitted or top-dose-only effect, or another doubt; inactive = no such curve, though single readings can be large or run the other way;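 note: top concentration of the series not given in the record; plate controls included wells without enzyme; inactives centre near -10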
Target sequence (P15428 whole entry, looked up): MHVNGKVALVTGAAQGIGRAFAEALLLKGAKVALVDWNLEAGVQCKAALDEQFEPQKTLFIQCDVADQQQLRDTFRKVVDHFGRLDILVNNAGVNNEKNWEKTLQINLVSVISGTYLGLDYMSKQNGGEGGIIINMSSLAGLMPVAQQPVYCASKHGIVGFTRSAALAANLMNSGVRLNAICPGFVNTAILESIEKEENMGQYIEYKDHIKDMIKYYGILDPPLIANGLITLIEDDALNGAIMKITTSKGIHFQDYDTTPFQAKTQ
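NADH formation kinetics: reaction with 30 uM PGE2 and 1 mM NAD+ (final), 20 nM enzyme, Tris-HCl pH 8 with Tween 20, after 15 min compound preincubation at room temperature. Fluorescence change, last versus first of five reads.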
An asterisk follows results filed as active; ? = inconclusive; & = joins results of further samples; [ ] = dose if it differs, or a comment. % is set by controls: 0 for no effect and ±100 for the full control effect; potency is the fitted concentration of half-maximal effect.

smiles	HPGD block
COc1ccc(-n2c(SCC(=O)NCC3CCCO3)nc3ccccc32)cc1 (configuration not stated)	10µM*
O=C(CN(Cc1ccccc1)S(=O)(=O)c1ccc2c(c1)OCCO2)N/N=C/c1ccc(F)cc1	-6%
O=C(c1ccccc1)c1cc(-c2ccccc2)on1	?
Brc1ccc(-c2nc3ncccn3c2Nc2ccc3c(c2)OCCO3)o1	-19%
CC(C)NC(=O)COC(=O)c1ccccc1Oc1ccccc1	-19%
COc1cc(C2CC(=O)n3c(nc4ccccc43)S2)cc(OC)c1OC (configuration not stated)	-9%
COC(=O)[C@H](C)NC(=O)Nc1ccccc1F	3%
COc1ccccc1Nc1nc(N)nc(CN2CCCCCC2)n1	?

(further entries)
smiles	HPGD block
Cc1cc(O)c(C=Nc2cccc(Cl)c2)c(=O)o1	-8%
O=C(CSc1nc2ccccc2[nH]1)NCc1ccco1	-9%
CCC(=NC1CC(C)(C)NC(C)(C)C1)C1=C(O)CC(C)(C)CC1=O	-2%
CC(C)Cc1ccc(S(=O)(=O)N2CCN(C(=O)c3ccco3)CC2)cc1	-10%
Cc1ccc(-n2c3c(cc(C(=O)Nc4cccc(C)n4)c2=O)C(=O)CCC3)cc1	-9%
CC(=O)c1c(C(C)=O)c(C)n(-c2ccc(N)c(C)c2)c1C	-22%
Cc1cc(Cl)ccc1OCCCC(=O)NCC1CCCO1 (configuration not stated)	11µM*
Cc1nc(NC(=O)/C=C/c2ccccc2)sc1C(=O)Nc1ccc(Cl)cc1	?

(cont.)
smiles	HPGD block
CC1(C)CC(NC(=O)c2cccc3ccccc23)CC(C)(C)N1	0%
c1cc(CN2CCCCC2)cc(OCCCNc2nc3ccccc3s2)c1	-12%&-3%
O=C(/C(=C/O)N=Nc1ccc(Cl)cc1)c1ccncc1	-15%
Cc1ccc(C(=O)NC2CCS(=O)(=O)C2)cc1S(=O)(=O)N1CCCCC1 (configuration not stated)	-12%
CCOC(=O)C1=C(N)n2c(s/c(=C/c3ccccc3)c2=O)=C(C(=O)OCC)C1c1ccccc1 (configuration not stated)	-5%
Cc1ccc(NC(=O)CSc2ccccc2NC(=O)c2ccccc2)cc1Cl	-8%
O=C(CCN1CCc2ccccc2CC1)c1ccc2c(c1)OCCO2	-21%
COC(=O)C1=C(NC(=O)c2ccc(C)cc2)CCS1	-24%

Carrying on.
smiles	HPGD block
CC(C)CCOC(=O)/C=C/c1ccccc1	-1%
COc1ccc(/C=N/N=C2/NC(=O)C(c3ccccc3)(c3ccccc3)S2)cc1	-15%
CC(C)Oc1cc2oc(=O)c3c(c2cc1Cl)CCC3	?
CCN(CC(=O)NC1CCCC1)S(=O)(=O)c1ccc(C)cc1	-13%
Cc1cc(C)c(-n2c(C)cc(/C=C3/NC(=O)NC3=O)c2C)c(C)c1	-19%
COc1ccc(C(=O)Nc2ccc(S(=O)(=O)Nc3cc(C)nc(C)n3)cc2)c(OC)c1	-30%
C/C(=N\NC(=O)COc1ccc(C(C)(C)C)cc1)c1ccc(OC(F)F)cc1	-4%
Cc1ccc(Cn2c(=O)n(Cc3ccco3)c(=O)c3ccccc32)cc1	-10%

Next section.
smiles	HPGD block
O=C1CCCC2=C1C(c1ccccc1)CC(=O)N2c1ccccc1 (configuration not stated)	-5%
Cc1ccc(N2C(=O)C(Cc3ccccc3)NC2=S)cc1 (configuration not stated)	-22%
O=C(Nc1cccc(F)c1)c1c(F)c(F)c(F)c(F)c1F	-8%
NNc1nc(Nc2ccccc2)nc(N2CCCCC2)n1	-8%
C=CCn1c(SCC(=O)N2CCc3ccccc3C2)nc2sc(C)cc2c1=O	-12%
Cc1nc2nc(-c3cccnc3)nn2c(C)c1Cl	-14%
Cc1[nH][nH]c(=O)c1C(c1c(C)[nH][nH]c1=O)c1cn(Cc2ccccc2Cl)c2ccccc12	-10%
O=C(NCCc1ccccc1)C1CC(=O)N(C2CCCCCC2)C1 (configuration not stated)	-10%

More entries:
smiles	HPGD block
O=C(CN1C(=O)CNC1=O)Nc1cccc(C(F)(F)F)c1	-4%
COc1ccc(-n2c(SCc3ccc([N+](=O)[O-])cc3)nnc2-c2ccccc2)cc1	?
COC(=O)[C@@H](NC(=O)N1CCc2nc(-c3ccc(OC)cc3C)c3c(c2C1)CO[C@@H](c1ccccc1)C3)C(C)C	-8%
CCc1nc(N)c(C#N)c(-c2ccc(OC)c(OC)c2)c1C	42%[activator]
Cc1ccc(C)c2[nH]c(=O)c(CN(Cc3ccc4c(c3)OCO4)Cc3nnnn3Cc3ccco3)cc12	?
COc1cc(OC)cc(C(=O)NCC2CCCO2)c1 (configuration not stated)	25µM*
CN(C)c1nc2c(c(N)nn2-c2ccc(Cl)cc2)c(=O)o1	-5%
COc1ccc(C2C(C(=O)OC3CCCCC3)=C(C)Nc3nnnn32)c(OC)c1OC (configuration not stated)	-11%

Following part
smiles	HPGD block
Cc1cc(C)cc(NC(=O)c2ccc(CSc3nnnn3C)cc2)c1	-10%
CS(=O)(=O)N(CC(=O)Nc1ccccc1C(=O)NCCc1ccccc1)c1ccc2c(c1)OCCO2	-15%
O=C(CCSc1ccc(Cl)c(Cl)c1)NC12CC3CC(CC(C3)C1)C2	-19%
C=CCNC(=O)CC(=O)N/N=C/c1cccc(C)c1	-6%
Cc1nnc(SCC(=O)N(C)Cc2ccccc2)[nH]c1=O	-24%
CCOC(=O)c1nnn(CC(=O)N2N=C(c3ccccc3)CC2c2ccccc2)c1C(=O)OCC (configuration not stated)	?
COc1ccc(C)cc1-n1c(-c2ccncc2)n[nH]c1=S	-14%
CC(C)(C)n1nnnc1C(c1ccncc1)N1CCCCCC1 (configuration not stated)	-3%

Reformatted as labelled records: entries from further up
> C=CCNC(=O)CC(=O)N/N=C/c1cccc(C)c1
  HPGD block = -6%

> O=C(CCSc1ccc(Cl)c(Cl)c1)NC12CC3CC(CC(C3)C1)C2
  HPGD block = -19%

Further results
smiles	HPGD block
COC(=O)[C@H](Cc1ccccc1)NC(=O)[C@H]1C[C@@H]1[C@H](NC(=O)OCc1ccccc1)c1ccccc1	-6%
COCC(=O)N1CCC2(CCN(Cc3ccncc3)CC2)CC1	-8%
Cc1ccc(NC(=O)C2C(c3ccccc3)C=CC(c3ccccc3)C2C(=O)O)cc1 (configuration not stated)	-8%
Cn1nnnc1SCc1nc2ccccc2s1	-3%
Cc1nnc(-c2cnn(-c3ccccc3)c2N)n1Cc1ccc(F)cc1	?
NC(=O)c1ccccc1N/C=C/C(=O)c1ccc(F)cc1	-21%
N#Cc1cc2c(nc1SCC(=O)O)CCCC2	-35%
COc1cccc(-n2nnnc2SCC(=O)Nc2nc3c(s2)CCCC3)c1	25µM*

(list continues)
smiles	HPGD block
Cc1cc(OCCn2ccnc2)ccc1C(C)C	-9%
Cc1nn2c(c1-c1ccccc1)N=C(c1ccco1)CC2c1ccccc1 (configuration not stated)	-26%
CCOC(=O)c1cnc(SCC(=O)Nc2ccc(N3CCOCC3)c(Cl)c2)nc1N	-4%
O=S(=O)(c1cccc(C(F)(F)F)c1)N1CCC(c2cc(-c3cccc4ccccc34)n[nH]2)CC1	-30%
Clc1ccc(-c2nnc3n2CCCC3)cc1Cl	32µM*
COc1ccc(-n2c(SCC(=O)Nc3nccs3)nc3c(c2=O)SCC3)cc1	-2%
COc1ccc(N2C(=O)CCC(C(=O)N(C)C3CCCCC3)C2c2ccc(OC)c(OC)c2)cc1 (configuration not stated)	-6%
Cc1occc1C(=O)NC1CCCCCCC1	-18%

Continued:
smiles | HPGD block
CCCNC(=O)CN(C)S(=O)(=O)c1ccc(F)cc1 | -12%
COc1ccc(C2NC(C(=O)O)Cc3c2[nH]c2ccccc32)cc1OC (configuration not stated) | -23%
Cn1c(NC(=O)c2ccccc2Br)cc(=O)n(C)c1=O | -3%
CC(=O)N1c2ccc([N+](=O)[O-])cc2NC(=O)CC1C (configuration not stated) | -6%
COc1cccc(C(=O)Cn2c(N3CCCCC3)nc3c2c(=O)n(C)c(=O)n3C)c1 | -11%
COc1ccc(C2/C(=C(/O)c3ccccc3)C(=O)C(=O)N2C)cc1 (configuration not stated) | 18%
CC(=O)Nc1ccc(S(=O)(=O)Nc2c(C)n(C)n(-c3ccccc3)c2=O)cc1 | -13%
CCc1ccc(NCc2nc(-c3ccccc3)no2)cc1 | -5%

Additional compounds follow.
smiles | HPGD block
O=c1ccccn1CCOc1ccccc1Cl | -11%
CCCn1nnc(NC(=O)c2cccnc2Cl)n1 | 2%
O=C(NCCCN1CCOCC1)c1cccs1 | -16%
CC(C)CNC(=S)NNC(=O)c1ccc(OC(F)F)cc1 | -2%
Cc1cc(C)n(C(=O)COc2ccccc2C)n1 | 0%
Clc1ccccc1Cn1nnc2c(N3CCOCC3)nc(C3CC3)nc21 | -14%
COc1ccc2c(c1)C(=O)N(c1ccccc1OC)C(=O)C2 | 8.9µM*
COC(=O)COc1ccc(S(=O)(=O)Nc2ccc(NC(C)=O)cc2)cc1 | -12%

Later entries:
smiles | HPGD block
COc1ccc(C(=O)N2CCC[C@@]3(CCN(Cc4nccs4)C3)C2)cc1 | -24%
Cc1ccc(-n2nnnc2SC(C)C(N)=O)c(C)c1 (configuration not stated) | -2%
CC(C)Cn1c(SCC(=O)N2CCc3ccccc3C2)nc2cc(Cl)ccc2c1=O | -7%
Cn1c2ccccc2c(=O)c2c(=O)n(-c3ccccc3)c(C3CCCCC3)nc21 | -11%
COc1cc2cc(C(c3nnnn3C(C)(C)C)N3CCC(C)CC3)c(=O)[nH]c2cc1OC (configuration not stated) | ?
Nc1c(C(=O)NCC2CCCO2)sc2nc3c(c(-c4ccco4)c12)CC/C3=C\c1ccco1 (configuration not stated) | 20µM*
O=C(Nc1cc(C(F)(F)F)ccc1N1CCOCC1)c1ccco1 | -13%
Nc1nc(N)c2sc3nc4c(cc3c2n1)CCC4 | -28%

Additional records.
smiles | HPGD block
COc1cc(C2=NOC(C(=O)Nc3ccc(C(C)=O)cc3)C2)cc(OC)c1OC (configuration not stated) | -6%
Fc1ccc(C(c2nnnn2C2CCCC2)N2CCc3ccccc32)cc1 (configuration not stated) | -8%
CCOC(=O)C1=C(C)NC(SCC(=O)OC)=C(C#N)C1c1ccc(C(=O)OC)cc1 (configuration not stated) | ?
CCOC(=O)/C(C#N)=c1/s/c(=C2\C=Cc3ccccc3N2CC)c(=O)n1CC | -5%
Cc1ccc(NC(=O)CN(C)S(=O)(=O)c2cccs2)cc1F | 2%
CCCOc1ccccc1C(=O)N(Cc1ccco1)C1CCS(=O)(=O)C1 (configuration not stated) | 1%
Cc1ccc2oc(=O)c3cnn(CC(=O)Nc4ccccc4N4CCN(C)CC4)c3c2c1 | 1%
CCn1cc([N+](=O)[O-])c(C(=O)Nc2nc(-c3ccc(C)c(C)c3)c(C)s2)n1 | -3%

Next part:
smiles | HPGD block
Cc1nc2c(c(-c3ccccc3)c1C#N)C(=O)c1ccccc1-2 | -6%
COCCCn1c2nc3ccccc3nc2c2c(=O)n(-c3ccccc3OC)c(C)nc21 | ?
COc1cccc([C@@H]2Oc3ccc(OC)cc3C[C@H]2OC(=O)N[C@H](C)C2CCCCC2)c1 | -8%
COc1ccc(-n2c(Cn3nc(C(F)(F)F)cc3C)n[nH]c2=S)cc1 | -2%
CC(C)=C1C2CCC1C1C(=O)N(c3nccs3)C(=O)C21 (configuration not stated) | -1%
CC(C)OC(=O)CSc1nnc(-c2cnccn2)n1-c1ccccc1 | -30%
CN(C)CCCOC(=O)Cc1ccc(Cl)cc1 | -8%
C=CCn1c(SCC(=O)c2ccc(OC)cc2)nnc1-c1ccc2c(c1)OCO2 | -14%

More records follow:
smiles | HPGD block
N=c1n(Cc2ccccc2)c2ccccc2n1Cc1ccccc1 | -12%
Cc1ccccc1Cn1ccc(NC(=O)c2nn(C)cc2[N+](=O)[O-])n1 | -14%
COc1ccc(CN2C(=O)CCC2(C)C(=O)NCc2cccnc2)c(OC)c1 (configuration not stated) | -7%
Cc1ccnc(SCc2cc(=O)c(OC(=O)c3ccco3)co2)n1 | -5%
CC1(C)NC(=O)N(CC(O)COc2cccc(F)c2)C1=O (configuration not stated) | -7%
Cc1nc(NCc2ccccn2)c2ccccc2n1 | -7%
O=S(=O)(c1ccc(Cl)c(F)c1)N1CCC(c2nc(-c3ccncc3)no2)CC1 | -1%
O=C(O)CCC(=O)NNC(=O)c1ccc(Br)cc1 | -1%

Structural class: the compounds so far containing a thiophene ring, fused or not.
smiles | HPGD block
C=CCn1c(SCC(=O)N2CCc3ccccc3C2)nc2sc(C)cc2c1=O | -12%
O=C(NCCCN1CCOCC1)c1cccs1 | -16%
Nc1c(C(=O)NCC2CCCO2)sc2nc3c(c(-c4ccco4)c12)CC/C3=C\c1ccco1 (configuration not stated) | 20µM*
Nc1nc(N)c2sc3nc4c(cc3c2n1)CCC4 | -28%
Cc1ccc(NC(=O)CN(C)S(=O)(=O)c2cccs2)cc1F | 2%

Additional results:
smiles | HPGD block
CCOc1cc(S(=O)(=O)NCCc2ccc(OC)c(OC)c2)c(OCC)cc1-n1cnnn1 | 0%
Cc1ccccc1CN(c1ccc(C(=O)NCC2CCCO2)cc1)S(C)(=O)=O (configuration not stated) | -4%
CC(=O)c1c(CC(=O)O)[nH]n(-c2nc3ccccc3s2)c1=O | ?
O=C1COc2ccc(C(=O)COC(=O)Cn3cnc4ccccc43)cc2N1 | -12%
N#CCSc1nnc(CNc2ccc(F)cc2)o1 | -4%
CCN=C(Nc1ccc(Cl)cc1)c1cccnc1 | -5%
N[C@@H](C(=O)O)c1ccc(C(=O)O)cc1 | -7%&-2%
Cc1coc(NC(=O)CSc2nc(-c3ccc(Cl)cc3)cc(C(F)(F)F)c2C#N)n1 | 40%[activator]
O=C(NCc1ccccc1)Oc1cccc(Cl)c1 | -4%

An excerpt; count on the stated rates, not on these rows.
